Compound activity deposited in PubChem BioAssay by National Center for Advancing Translational Sciences (NCATS).
StopGo FLuc – FMDV 2A StopGo reporter, firefly signal; HEK cells with a luciferase reporter of 2A StopGo recoding; Potency, µM (titrated, usually from 57.5 µM), inactives show top-dose signal change, negative = less light; hit rate 0.23% among 120,000; AID 1745856; active = well fitted falling curve with a large enough effect; inconclusive = small, poorly fitted or top-dose-only effect; inactive = no such curve, though single readings can be large or run the other way; also: nearly all actives have a fitted effect of over 60% in size; overnight with compound
2A Renilla – FMDV 2A StopGo reporter, Renilla signal; hit rate 0.32% among 120,000; AID 1745857; Potency, µM (top dose mostly 57.5 µM), for inactives: top-dose signal change, negative = less light; HEK cells with a luciferase reporter of 2A StopGo recoding; active means well fitted falling curve with a large enough effect; inconclusive means small, poorly fitted or top-dose-only effect; inactive means no such curve, though single readings can be large or run the other way; also: nearly all actives have a fitted effect of over 55% in size; overnight with compound
* = called active by the depositor; u = inconclusive; & = joins results of further samples; [ ] = remark or other dose. % is scaled to controls: 0 for no effect and ±100 for the full control effect; potency is read from the fitted curve at half-maximal effect. An excerpt; count on the stated rates, not on these rows.

SMILES | StopGo FLuc | 2A Renilla
CN1c2ccc(Cl)cc2-c2nc(SCC(=O)NCc3ccccc3)ncc2S1(=O)=O | -6% | -15%
Cc1ccc(NC(=O)[C@H](Cc2ccccc2)n2cnnn2)cc1 | 6% | 30%[activator]
Cc1ccccc1CSc1nc2c(sc3ccccc32)c(=O)n1CCCOC(C)C | 98%[activator] | 118%[activator]
Cn1c(N)c(C(=O)COC(=O)c2cc(-c3ccc(F)cc3)nc3ccccc23)c(=O)n(C)c1=O | 28% | 5%
CCC(CO)NS(=O)(=O)c1ccc(Cl)c(Cl)c1 (stereo not given) | -3% | 30%
CCCOc1ccc(NC(=O)C(C)Oc2ccccc2OC)c2cccnc12 (stereo not given) | 13% | 8%
CCn1cc2nc(SCc3ccc(C)cc3)n(CCc3ccccc3)c(=O)c2n1 | -25% | -25%
NS(=O)(=O)c1ccc(NS(=O)(=O)c2ccc(NC(=O)c3ccccc3[N+](=O)[O-])cc2)cc1 | 16% | 4%
CC(Cc1c[nH]c2ccccc12)NC(=O)C1CCN(c2nc(Cl)nc3nc[nH]c23)CC1 (stereo not given) | 21% | 16%
Cc1ccc(C)c(NC(=O)CSCc2cc(C)no2)c1 | 12% | 3%
O=S(=O)(Cc1ccc(F)cc1Cl)C12CC3CC(CC(C3)C1)C2 | 5% | 6%
CCN(CC)CCCNC(=O)c1ccc(-c2nc(CN3CCc4ccccc43)c(C)o2)cc1 | 20% | 16%
CCCOc1cccc(CCN)c1 | 7% | 0%
Cc1cccc(NC(=O)NCc2nc(-c3ccccc3)oc2C)c1C | 14% | 11%
CCCOc1ccc(-c2cc(C(F)(F)F)c(C#N)c(SCCC(=O)O)n2)cc1 | 3% | 18%
CCCn1ccc2c(OCC(=O)Nc3ccc(F)cc3F)cccc2c1=O | -1% | 22%
COc1cc(NC(=O)c2ccc3c(c2)NC(=O)CS3)cc(OC)c1OC | 0% | 35%[activator]
Cc1c(Cl)cccc1NC(=O)C(=O)NCCc1csc(-c2cccc(F)c2)n1 | -20% | -10%
COc1ccc(OC)c(C2=NOC(C(=O)Nc3ccc(OC(F)(F)F)cc3)C2)c1 (stereo not given) | -10% | 70%[activator]
Cc1ccc2c(c1)C1(CC(=O)Nc3c1cnn3-c1cccc(Cl)c1)C(=O)N2 (stereo not given) | -4% | -5%
Cc1ccc(CSc2nc(-c3ccccc3C)nc3c2Cc2c(CO)cnc(C)c2O3)cc1 | -20% | -14%
CC(=O)c1ccc(NC(=O)CSc2nc(N3CCCC3)c3c(c2C#N)CCCC3)cc1 | 17% | -9%
Cc1cc(C)c(C#N)c(SCC(F)(F)F)n1 | 6% | 11%
Cc1sc(NC(=O)/C=C/c2cccs2)c(C#N)c1C | 0% | 0%
O/N=C1\CC(c2ccccc2)Oc2ccc(Cl)cc21 (stereo not given) | -18% | u

Remaining list, next part
SMILES | StopGo FLuc | 2A Renilla
O=C(CCc1ncc(-c2ccccc2F)o1)Nc1ccccc1O | 0% | 25%
CCc1cccc(C)c1Nc1nn2c(=O)c3ccccc3nc2s1 | 0% | -2%
CC(c1ccc(F)c(F)c1)N(C)C(=O)c1cc2ccccc2[nH]1 (stereo not given) | 49%[activator] | 0%
O=C(N[C@H](CO)c1ccccc1)C1CCC(CNS(=O)(=O)c2ccc(F)cc2)CC1 (stereo not given in full) | -1% | 3%
CN1CCN(C(=O)c2cnn(-c3cccc(Cl)c3)c2C2CCN(C(=O)OC(C)(C)C)CC2)CC1 | -12% | -14%
Cc1cccc(NC(=O)Cn2c(=O)n(Cc3ccc4c(c3)OCO4)c(=O)c3oc4ccccc4c32)c1C | -17% | 2%
CC(=O)Nc1cccc(-c2csc(Nc3ccccc3C)n2)c1 | 0% | 0%
COc1ccc(-c2noc(CN3CCC(C(=O)Nc4ccc(-c5ccno5)cc4)CC3)n2)cc1OC | 14% | 6%
COc1cccc(NC(=O)Cn2c(=O)c3cccn3c3ccc(F)cc32)c1 | -30% | -15%
CC1=C(C(=O)N2CCOCC2)C(c2c(F)cccc2F)NC(=O)N1Cc1ccccc1 (stereo not given) | -4% | -13%
O=C(O)CCC(CC(=O)O)C(=O)O (stereo not given) | -4% | 11%
COc1ccc(CC(=O)OCC(=O)c2ccc3c(c2)OCCCO3)cc1 | u | -2%
CC(NC(=O)c1cccc2ccccc12)C1CC2CCC1C2 (stereo not given) | 1% | 50%[activator]
CCc1cc(C(=O)NCc2ccccc2)no1 | 63%[activator] | -9%
CCN(CC)S(=O)(=O)c1cc(NC(=O)COC(=O)c2cc(C)nc3ccccc23)ccc1C | 4% | 7%
O=C(NCc1ccc(F)cc1)Nc1c(NC2CCCCC2)c2ccccc2oc1=O | -18% | 4%
Cc1ccc2cccc(NC(=O)COc3cc(C)c(Cl)c(C)c3)c2n1 | -1%&-3% | 1%&-4%
CCC(C(=O)OCCOCCN(CC)CC)c1ccccc1 (stereo not given) | -10% | -13%
Cc1ccc(OCC(O)Cn2nc(-c3ccco3)oc2=O)cc1 (stereo not given) | 3% | -1%
Cc1noc(Cn2c(=O)c3cc4c(cc3n(CC(=O)Nc3ccc(C(C)C)cc3)c2=O)OCO4)n1 | -13%&-20% | -2%&9%
O=C(COC(=O)Cc1cccc2ccccc12)Nc1ccc(Cl)cc1 | 8% | 34%[activator]
Cc1ccc(NS(=O)(=O)c2ccc(Cl)cc2)cc1S(=O)(=O)N(C)C | -19% | 106%[activator]
CCOC(=O)c1cc(OC(C)C(=O)NC(C)c2ccccc2)cc(C(=O)OCC)c1 (stereo not given) | -11% | 31%[activator]
CCN(CC)c1ccc(NC(=O)CN2CCN(S(=O)(=O)c3cc(Cl)ccc3OC)CC2)cc1 | -14% | 5%
CCCNc1c(NC(=O)Nc2ccc(C)cc2)c(=O)oc2ccccc12 | 6% | 1%

Four compounds drawn at random from those above:
SMILES | StopGo FLuc | 2A Renilla
CN1CCN(C(=O)c2cnn(-c3cccc(Cl)c3)c2C2CCN(C(=O)OC(C)(C)C)CC2)CC1 | -12% | -14%
Cc1noc(Cn2c(=O)c3cc4c(cc3n(CC(=O)Nc3ccc(C(C)C)cc3)c2=O)OCO4)n1 | -13%&-20% | -2%&9%
O=C(CCc1ncc(-c2ccccc2F)o1)Nc1ccccc1O | 0% | 25%
CCCn1ccc2c(OCC(=O)Nc3ccc(F)cc3F)cccc2c1=O | -1% | 22%

The listing picks up with the 2 entries that preceded the break.
SMILES | StopGo FLuc | 2A Renilla
CCN(CC)c1ccc(NC(=O)CN2CCN(S(=O)(=O)c3cc(Cl)ccc3OC)CC2)cc1 | -14% | 5%
CCCNc1c(NC(=O)Nc2ccc(C)cc2)c(=O)oc2ccccc12 | 6% | 1%
Cc1n[nH]c(C)c1S(=O)(=O)N(CC(=O)NC(C)c1ccccc1)c1ccc(C(C)C)cc1 (stereo not given) | 53%[activator] | 120%[activator]
Cc1nn(C)c(NC(=O)Nc2ccccc2)c1C1=CCCCC1 | 9% | 21%
Cc1ccc(-c2nc3n(n2)C(c2ccccc2C)C=C(c2ccc(Cl)cc2)N3)cc1 (stereo not given) | u | -17%
Cc1ccc(-c2cn3nc(N4CCCC(C(=O)NCc5ccc(F)cc5)C4)sc3n2)cc1 (stereo not given) | 62%[activator] | -6%
COc1ccc(Cl)cc1S(=O)(=O)Nc1cccc(-c2ccc(N3CCCC3)nn2)c1 | -8% | 2%
C=CCN1[C@@H](Cc2ccccc2)COc2cccc(N3CCCC3)c2S1(=O)=O | 0% | 0%
CC1CCc2c(sc(NC(=O)c3cc4nc(-c5ccc(Cl)cc5)cc(C(F)(F)F)n4n3)c2C#N)C1 (stereo not given) | 0% | -17%
CC(NNC(=O)C(O)(c1ccccc1)c1ccccc1)c1ccccc1 (stereo not given) | -5% | 9%
CN1c2ccccc2-c2nc(SCC(=O)Nc3ccccc3Br)ncc2S1(=O)=O | u | u
O=C(NC1CC(=O)N(c2ccc(F)cc2)C1)c1ccc2c(c1)OCO2 (stereo not given) | -12% | -8%
COc1c2c(cc3c1OCO3)CCN(C)C2 | -3% | -11%
O=C(NCCN1CCN(c2cccc(Cl)c2)CC1)c1nnc(Cc2ccc(F)cc2)o1 | -13% | -17%
Cc1c(Cl)cccc1NC(=O)c1nc2ccccc2nc1N1CCCCC1 | -12% | 5%
Cc1cnc(C(=O)OCc2cccc(C(F)(F)F)c2)cn1 | 6% | 1%
O=C1NCN(c2ccccc2)C12CCN(CC1COc3ccccc3O1)CC2 (stereo not given) | 8% | -10%
Cc1nn(-c2ccc(N3CCCC3)nn2)c(C)c1CCC(=O)NCc1ccccc1 | 1% | -8%
O=C(CCc1ncc(-c2ccccc2)o1)N1CCN(c2ccccc2F)CC1 | 21% | -3%
Cc1ccc(OCC(=O)Nc2ccc3nn(-c4ccc(C)cc4)nc3c2)cc1 | 74%[activator] | -4%
Cc1oc2cc(OCCN3CCN(CCO)CC3)ccc2c(=O)c1-c1ccc(Br)cc1 | -6% | -17%
CCc1ccccc1NC(=O)c1cc2ccccc2oc1=O | 54%[activator] | -12%
CCCCCSc1nc2c(c(=O)[nH]c(=O)n2C)n1Cc1ccccc1Cl | -7% | -5%
CC(=O)N1CCCc2cc(S(=O)(=O)N3CCCC(C(=O)N4CCN(c5cc(C)ccc5C)CC4)C3)ccc21 (stereo not given) | u | u
CCOc1cc(CNC(=O)C(NS(=O)(=O)c2cccs2)C(C)C)cc(OCC)c1OCC (stereo not given) | -10% | 12%
COc1cccc(C2C(C#N)=C(N)Oc3nc[nH]c(=O)c32)c1 (stereo not given) | -4% | -6%
Cc1ccc(C)c(N2CCN(Cc3csc(C)c3)CC2)c1 | -11% | -18%

Additional compounds follow.
SMILES | StopGo FLuc | 2A Renilla
Cc1ccc(Cl)cc1N1CCN(C(=O)CN(C)c2nnc(N3CCCC3=O)s2)CC1 | -23% | -25%
Cc1ccc(C(=O)c2ccccc2C(=O)N(C)Cc2cccs2)cc1C | 0% | 148%[activator]
CCOc1cc(C2SC(NC(C)=O)=NN2C(C)=O)ccc1OCc1ccccc1F (stereo not given) | 0% | 56%[activator]
Cc1cc(C)n(-c2nc3ccccc3nc2Nc2cc(Cl)ccc2C)n1 | 13% | 0%
Cc1nc(-c2ccc(Cl)cc2)sc1CCNC(=O)C(=O)Nc1ccc2c(c1)OCCO2 | 27% | -16%
COc1ccc(CCNC(=O)c2ccc3c(c2)CCN3S(=O)(=O)c2ccc(Cl)cc2)cc1 | 0% | -2%
COC(=O)CNC(=O)C(Cc1ccccc1)NS(=O)(=O)c1ccc2c(c1)c(=O)n(C)c(=O)n2C (stereo not given) | -25% | -13%
COc1ccc(OC)c(CNC(=O)c2cc(=O)[nH]c3ccc(S(=O)(=O)N4CCCCC4C)cc23)c1 (stereo not given) | -13% | -4%
FC(F)(F)c1cccc(N2CCN(Cc3nnc(-c4ccc5c(c4)OCO5)o3)CC2)c1 | 3% | 0%
CC1CCN(C(=O)CSc2nc3ccccc3c(=O)[nH]2)CC1 | 91%[activator] | 20%
CCOc1ccc(-c2c(C)nn3c(C)c(C(=O)NCCc4ccccc4)cnc23)cc1OCC | 2% | 2%
Cc1ccc2nc(COc3cccc(NC(=O)COc4ccccc4F)c3)cc(=O)n2c1 | 69%[activator] | -9%
O=C(O)c1cc(NCc2cccc(OCc3ccccc3)c2)ccc1N1CCOCC1 | u | u
Nc1ccccc1SC1=CS(=O)(=O)c2ccccc21 | 49%[activator] | 23%
Cn1c(=O)oc2cc(S(=O)(=O)Nc3ccc(C(=O)O)cc3)ccc21 | 11%&-13% | -6%&-10%
Cc1ccc2nc(C)c(C(=O)N3CCN(C(=O)c4ccccc4)CC3)cc2c1 | 4% | -8%
COc1ccc(NC(=O)C(CCSC)NC(=O)C2CCC(C)CC2)cc1OC (stereo not given) | -1% | -3%
O=C(COCc1nnc(C(=O)Nc2cccc(F)c2)s1)NCCc1ccco1 | 0% | -2%
Cc1ccc(-n2nc(-c3ccc(F)cc3)c3cnc4cc5c(cc4c32)OCO5)cc1C | -13% | -12%
O=C(O)CNS(=O)(=O)c1ccc(Cl)c(Cl)c1 | 0% | 17%
CC1CCN(c2nc(-c3ccc(Cl)cc3)nc3ccccc23)CC1 | -1% | 2%
CC(C)Cn1c(N)c(-c2csc(NC(C)C)n2)c(=O)n(C)c1=O | 6% | -1%

Looked up above:
In 2A Renilla, COc1ccc(CCNC(=O)c2ccc3c(c2)CCN3S(=O)(=O)c2ccc(Cl)cc2)cc1 shows -2%
In StopGo FLuc, Cc1nc(-c2ccc(Cl)cc2)sc1CCNC(=O)C(=O)Nc1ccc2c(c1)OCCO2 shows 27%
In 2A Renilla, CC1CCN(c2nc(-c3ccc(Cl)cc3)nc3ccccc23)CC1 shows 2%
In StopGo FLuc, CCOc1cc(C2SC(NC(C)=O)=NN2C(C)=O)ccc1OCc1ccccc1F (stereo not given) shows 0%
In 2A Renilla, Cc1ccc(C(=O)c2ccccc2C(=O)N(C)Cc2cccs2)cc1C shows 148%[activator]
In 2A Renilla, COC(=O)CNC(=O)C(Cc1ccccc1)NS(=O)(=O)c1ccc2c(c1)c(=O)n(C)c(=O)n2C (stereo not given) shows -13%
